YopH PTP inh = inhibitors of Yersinia enterocolitica YopH tyrosine phosphatase; 140,000 tested, 0.16% active; inhibition, %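 (about 10 µM by stock and volumes)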; fluorescence Ex485/Em525;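 active = inhibition of 50% or more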;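 also: controls were vehicle for no effect and minimum signal wells for full effect; inactives centre near -20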
Arbovirus inh = blocks arbovirus infection. arbovirus infection cell-based antiviral screen. AID 1251. 200,000 tested, 0.37% active. inhibition, % at 10 µM;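 active = inhibition from about 30%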;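 also: bluetongue infection of BSR cells; cell survival read as ATP light after 72 h; 0% = infected wells without compound and 100% = uninfected wells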
Mtb H37Rv = M. tuberculosis H37Rv growth inhibitors, H37Rv strain (AID 1626); one-dose inhibition, % at 10 µM; IC50 in µM for titrated hits; M. tuberculosis H37Rv growth inhibition; higher % means a stronger effect; 220,000 tested, 0.95% active;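 active = confirmed in a dose series; inconclusive = inhibition above 80% but not taken into the dose series; inactive = below 80% or under 30% at every dose of the series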;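 also: bacteria incubated seven days before Alamar blue readout; 0% = bacteria only wells and 100% = bacteria with antibiotic wells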
RecA intein inh = blocks M. tuberculosis RecA intein splicing; P9WHJ3; cell-free RecA intein splicing, fluorescence; inhibition, %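 (about 9 µM by stock and volumes)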; 290,000 tested, 0.75% active; in the data active = inhibition above about 30%; inconclusive = no clear call, values can overlap the other calls;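 also: 0% = vehicle wells and 100% = reference inhibitor control wells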
Target sequence (P9WHJ3 whole entry, looked up): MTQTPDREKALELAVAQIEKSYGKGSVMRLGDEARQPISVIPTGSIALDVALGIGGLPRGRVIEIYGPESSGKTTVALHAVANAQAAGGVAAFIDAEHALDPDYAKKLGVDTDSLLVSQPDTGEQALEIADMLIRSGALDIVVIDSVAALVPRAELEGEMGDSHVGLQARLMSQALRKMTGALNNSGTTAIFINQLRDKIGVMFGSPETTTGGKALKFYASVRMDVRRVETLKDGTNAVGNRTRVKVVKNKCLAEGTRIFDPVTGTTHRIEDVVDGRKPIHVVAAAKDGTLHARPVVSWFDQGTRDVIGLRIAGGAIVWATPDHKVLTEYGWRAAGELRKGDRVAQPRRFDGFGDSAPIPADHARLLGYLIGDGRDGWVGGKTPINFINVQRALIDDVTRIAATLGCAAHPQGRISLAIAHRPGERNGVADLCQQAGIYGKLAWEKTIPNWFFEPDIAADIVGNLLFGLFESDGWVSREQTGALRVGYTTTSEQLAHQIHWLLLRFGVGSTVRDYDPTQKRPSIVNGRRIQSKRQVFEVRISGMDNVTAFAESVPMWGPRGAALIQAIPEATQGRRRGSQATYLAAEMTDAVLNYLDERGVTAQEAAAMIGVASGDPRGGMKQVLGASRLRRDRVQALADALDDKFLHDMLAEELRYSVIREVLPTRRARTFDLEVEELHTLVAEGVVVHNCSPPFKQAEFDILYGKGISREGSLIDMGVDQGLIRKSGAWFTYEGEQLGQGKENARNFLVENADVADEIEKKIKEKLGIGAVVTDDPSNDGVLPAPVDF
Mtb bLac sens = beta-lactam sensitization of Mtb H37Rv. M. tuberculosis H37Rv growth with meropenem, percent inhibition; hits of this screen are not shown here. inhibition, % at 25 µM. 330,000 tested, 0.27% active. AID 434955;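 active = about 74% or more and at least 40 points above the plate without the antibiotic, then above 30% in a dose series; inconclusive = first-round hits that could not be retested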;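 also: growth measured after seven days incubation then overnight dye step; 0% = bacteria only wells and 100% = bacteria with antibiotic; twin plates without the antibiotic show which effects depend on it; some results filed as inactive read as strong as hits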
Arbovirus inh repeat = second read-out of Arbovirus inh, no call of its own (marks repeat the call); inhibition, %; measured here: 10K subset replicate screen; many hits read low in the repeat;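 first of two repeat runs on a subset; 0% = infected and 100% = uninfected wells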
An asterisk follows results filed as active; ? = inconclusive; / = no result given. These rows are one share of the data. The share of hits here may be higher or lower than overall.

SMILES | YopH PTP inh | Arbovirus inh | Mtb H37Rv | RecA intein inh | Mtb bLac sens | others
O=C(NC(C(=O)c1ccccc1)n1ccc(=O)[nH]c1=O)c1ccccc1 (centres undefined) | 14.8 | -2.4 | -4.6% | 0.0 | -6.3
CCOC(=O)C(Cc1ccccc1)C(=O)Nc1cccc(C)c1 (centres undefined) | -22.0 | -9.1 | 2.4% | 2.6 | 3.0
CCc1nnc2n1N=C(c1ccccc1)CS2 | / | / | / | -0.1 | 0.3
Cc1cccc(C(=O)Nc2ccc3c(c2)CC2(C(=O)N(C)C(=O)N(C)C2=O)C2CCCN32)c1 (centres undefined) | / | / | / | -19.8 | -0.7
Cc1ccc(-n2c(-c3cccs3)nc3nc4ccccc4nc32)cc1 | -23.9 | 2.8 | -1.0% | -0.9 | -3.1
Clc1ccc(-n2nnnc2-c2cnc3ccc(Cl)cc3c2-c2ccccc2)cc1 | / | / | 0.0% | 0.5 | -8.3
O=C(Nc1nc(-c2ccco2)cs1)c1ccccc1 | -40.0 | 62.3* | 4.2% | 11.7 | 5.6
CC(=O)Nc1ccccc1OCC(=O)c1cc(C)n(Cc2cccs2)c1C | -17.7 | -16.1 | -4.2% | 6.5 | -4.5
CC1=C(C(=O)OCC2CCCO2)C(c2ccccc2)C2=C(CCCC2=O)N1 (centres undefined) | / | -1.3 | 6.3% | -12.2 | -2.4
Cc1ccc(S(=O)(=O)N(CC(=O)Nc2ccccc2-c2ccccc2)c2ccc(C)cc2C)cc1 | -0.5 | 3.1 | 7.9% | 11.5 | 2.4
CC1OC2C(OC1C)N(S(C)(=O)=O)CCN2S(C)(=O)=O (centres undefined) | -59.9 | 1.6 | -4.0% | 1.4 | -0.9
COC(=O)Nc1ccc(S(=O)(=O)NCCCCCC(=O)O)cc1 | / | 4.0 | -7.7% | 1.4 | 1.2
COc1ccc(-n2c(C)c(C)c3c(N)ncnc32)cc1 | / | / | / | -1.6 | 3.6
NC(=O)OCCSc1nnc(-c2cccc(C(N)=S)c2)o1 | -41.3 | 0.3 | -10.1% | 2.4 | -6.5
Cc1ccc(-n2nc(C)c3c2OC(N)=C(C#N)C3c2ccc(F)cc2)cc1 (centres undefined) | -33.4 | 6.0 | 0.9% | 60.0* | -5.6
CC(C)(CNC(=O)COc1ccccc1Cc1ccccc1)N1CCOCC1 | / | -7.6 | -5.6% | 6.5 | 3.3
O=C(CSc1ccccn1)Nc1ccc(Br)cn1 | -23.9 | -12.0 | -7.5% | 15.0 | -6.8
COc1ccc(C2SCC(C(=O)NCc3ccc(F)cc3)N2C(C)=O)cc1 (centres undefined) | -49.8 | 6.4 | -2.3% | / | 5.3
CCOC(=O)c1ccc(NC(=O)c2nc[nH]c2C(=O)NCc2ccccc2)cc1 | / | / | 11.3% | -2.0 | -8.2
COc1ccc(Cn2c(C3CC3)nc3ccc(NC(=O)c4cccnc4)cc3c2=O)cc1 | / | / | / | 3.0 | 5.9

Entries listed so far containing a halogen, in the order listed:
SMILES | YopH PTP inh | Arbovirus inh | Mtb H37Rv | RecA intein inh | Mtb bLac sens | others
Clc1ccc(-n2nnnc2-c2cnc3ccc(Cl)cc3c2-c2ccccc2)cc1 | / | / | 0.0% | 0.5 | -8.3
Cc1ccc(-n2nc(C)c3c2OC(N)=C(C#N)C3c2ccc(F)cc2)cc1 (centres undefined) | -33.4 | 6.0 | 0.9% | 60.0* | -5.6
O=C(CSc1ccccn1)Nc1ccc(Br)cn1 | -23.9 | -12.0 | -7.5% | 15.0 | -6.8
COc1ccc(C2SCC(C(=O)NCc3ccc(F)cc3)N2C(C)=O)cc1 (centres undefined) | -49.8 | 6.4 | -2.3% | / | 5.3

Next records
SMILES | YopH PTP inh | Arbovirus inh | Mtb H37Rv | RecA intein inh | Mtb bLac sens | others
Cc1ccc(CNCCc2ccc(F)cc2)s1 | / | / | / | 0.9 | 5.7
O=C(N/N=C/c1cc(Br)c(Br)o1)c1ccc2c(c1)OCCO2 | / | / | 16.6% | 8.4 | 5.4
Cc1cc(N)n2nc(-c3ccccc3)cc2n1 | -32.6 | -3.5 | 5.7% | 3.8 | 0.1 | Arbovirus inh repeat=-8.0
COc1ccc(C(=O)CC2OC(=O)c3ccccc32)cc1OC (centres undefined) | -22.2 | -1.9 | -5.9% | 1.0 | -11.0
Cc1ccccc1OCC(O)Cn1c(=N)n(Cc2ccccc2)c2ccccc21 (centres undefined) | / | / | 67.3% | 11.8 | 90.9
COC(=O)[C@H](C)NC(=O)NC(C)CCc1ccccc1 (some centres undefined) | -6.1 | -1.5 | -1.0% | -2.2 | 29.5
O=C(Cn1cc2c(n1)CCCCC2)NCCN1CCOCC1 | -11.2 | 1.8 | -2.9% | 1.0 | -2.8 | Arbovirus inh repeat=2.8
COC(=O)CN1C(=O)CN=C(c2ccccc2Cl)c2cc(Br)ccc21 | / | / | -3.2% | -0.4 | -4.6
CCOc1ccc2c(C)c(C)c(=O)oc2c1OCC | 7.7 | 2.1 | -5.5% | -1.7 | 45.9
O=C1C=CC(O)(c2cc(=O)c3c(O)cc(O)cc3o2)C=C1 | -11.7 | -40.5 | 3.87µM* | 7.7 | 99.9
COc1ccccc1COC(=O)N/C=C/c1ccco1 | / | 1.9 | 3.0% | 0.4 | -2.3
O=C1c2ccccc2-c2nc3ncnn3c(-c3ccccc3Cl)c21 | -37.5 | -1.8 | -8.4% | 0.7 | -5.5 | Arbovirus inh repeat=-1.9
CC(C)N(Cc1cc2ccccc2[nH]c1=O)C(=O)C1CCCCC1 | -1.4 | 6.4 | -8.4% | -1.7 | 3.4
O=C(O)CC1SC(=Nc2cccc(O)c2)NC1=O (centres undefined) | -48.2 | 5.8 | 7.0% | -6.5 | 9.4
CCCn1c(=O)[nH]c(=O)c2c1nc(-c1ccccc1OC(F)F)n2CCOC | -33.2 | 0.2 | -25.0% | -0.5 | -20.9
CC(C)C[C@H](NC(=O)Nc1cccc(Cl)c1)C(=O)O | -51.7 | -1.5 | -21.7% | -0.7 | -7.6
COc1ccc(Oc2ccc(NC(=O)c3ccccc3C)cc2)cc1 | / | -13.6 | 9.3% | -0.8 | 4.5
CCOc1ccc(Nc2nc(N3CCOCC3)nc(N3CCOCC3)n2)cc1 | / | / | / | -2.6 | 7.4
CCC(C)(C(=O)NC1CCCCC1)N(Cc1cccs1)C(=O)c1ccccn1 (centres undefined) | / | 0.9 | -2.8% | 27.6 | -4.9
O=C1CN(C(=O)COc2cccc(F)c2)c2ccccc2N1 | -36.0 | -4.6 | -17.2% | -0.3 | -4.1

2 successive entries out of the list so far, for reference:
SMILES | YopH PTP inh | Arbovirus inh | Mtb H37Rv | RecA intein inh | Mtb bLac sens | others
O=C(Cn1cc2c(n1)CCCCC2)NCCN1CCOCC1 | -11.2 | 1.8 | -2.9% | 1.0 | -2.8 | Arbovirus inh repeat=2.8
COC(=O)CN1C(=O)CN=C(c2ccccc2Cl)c2cc(Br)ccc21 | / | / | -3.2% | -0.4 | -4.6

(listing goes on)
SMILES | YopH PTP inh | Arbovirus inh | Mtb H37Rv | RecA intein inh | Mtb bLac sens | others
CCCc1cnc(N2CCN(C(=O)c3ccc(OC)cc3)CC2)nc1 | / | / | / | 1.2 | 0.7
N#Cc1nc(-c2ccc(OCc3ccccc3)cc2)oc1N1CCOCC1 | -28.9 | -8.4 | 6.5% | 2.2 | 41.9
COc1ccc(-c2cc(C(=O)OCC(=O)N(C)C)c3ccccc3n2)cc1 | -45.1 | -1.5 | -8.2% | -1.9 | 71.0
Cc1nn(C)c(Cl)c1/C=N/OC(=O)c1ccc(F)cc1 | / | -0.3 | 36.2% | 0.2 | 50.1
CCOC(=O)COc1cc2c(C(=O)OCC)c(C)oc2cc1Br | -27.1 | 4.3 | 70.0% | 1.4 | 99.4 | Arbovirus inh repeat=0.3
CCOc1ccc(N(Cc2cc3ccc(C)cc3[nH]c2=O)S(=O)(=O)c2ccccc2)cc1 | / | / | / | -1.7 | 34.3
CN(C)S(=O)(=O)c1ccc(Cl)c(NC(=O)CSc2nc3c(cc2C#N)C(=O)CCC3)c1 | -24.6 | -4.2 | 4.7% | -7.6 | -3.9
CCn1c(O)c(C=NCc2cccs2)c(=O)[nH]c1=O | -25.0 | 0.4 | -13.4% | 3.8 | 4.8
Cc1ccc(CNC(=O)Nc2ccccc2)n1C | / | / | / | 0.1 | 2.3
CSc1ccc(CN(C)C(C)C(=O)NCC2CCCCC2)cc1 (centres undefined) | / | / | / | 0.1 | -2.2
CCOC(=O)c1cc(Sc2ccccc2N)cc(C(=O)OCC)n1 | / | / | 64.8% | 0.6 | 97.6
Cc1ccc(C(=O)Nc2ccccc2N2CCCCC2)o1 | / | / | / | 8.4 | 25.9
CC(=O)Nc1ccc(NC(=O)C(C)OC(=O)CCc2nc3ccccc3s2)cc1 (centres undefined) | / | 2.4 | -0.8% | -1.5 | 1.6
C=CCSc1nc(N)c(C(=O)Nc2ccccc2C)cc1C(N)=O | -25.8 | -5.3 | 10.1% | 2.0 | 3.0
O=C(COC(=O)C1CC2C=CC1C2)NCc1ccccc1Cl (centres undefined) | -16.1 | 1.8 | 6.5% | 0.4 | 1.1
Brc1ccsc1-c1csc(-c2ccncc2)n1 | / | / | / | -0.3 | 5.9
COCCn1c(SCC(=O)N2CCOCC2)nnc1-c1ccco1 | / | / | / | -2.4 | -0.4
O=C(c1coc(=O)c(Br)c1)N1CCOCC1 | -3.0 | 22.2 | -11.2% | -4.1 | /
COCCCN(CC(=O)NCc1ccccc1)S(=O)(=O)c1ccc(C)cc1 | / | / | / | 0.8 | 58.2
COc1ccc(OC)c(-c2csc(NC(=O)Cn3[nH]c(=O)c4ccccc4c3=O)n2)c1 | / | 22.0 | 2.3% | 11.8 | 7.6
COc1ccc(NC(=O)c2cc(C(C)C)on2)cc1OC | -22.9 | 9.5 | 6.8% | 0.1 | ?
CC(C)COC(=O)NCCCOC(=O)Nc1ccccc1 | -51.9 | 0.3 | 3.3% | 1.2 | -7.2
Nc1nc(CN2CCCCCC2)nc(Nc2ccc(F)cc2)n1 | 0.7 | -2.6 | 3.2% | 2.7 | 12.9
CC(=O)N/C(=C\c1ccccc1)C(=O)OCCCOC(=O)/C(=C/c1ccccc1)NC(C)=O | / | / | / | -0.7 | 0.8
COc1ccccc1-c1c(C)nn2c(N3CCN(c4ccccc4OC)CC3)cc(C)nc12 | 1.6 | 5.2 | 42.6% | 1.9 | 7.0 | Arbovirus inh repeat=-2.7
Cc1ccc(CN(C)C(=O)c2ccccc2Sc2ccccc2C#N)cc1 | / | / | / | 6.4 | 0.6
CC1CCN(Cc2nc(-c3ccc(Cl)cc3)no2)CC1 | / | / | -10.0% | 2.3 | 5.0
COc1ccc(S(=O)(=O)n2nc(OC(C)=O)cc2N)cc1 | / | 1.9 | -9.9% | 1.2 | 0.1
CCCCN1C=C(C(=O)OC)C(c2ccccc2C(F)(F)F)C(C(=O)OC)=C1 | -15.1 | 8.1 | 2.3% | -35.5 | -5.4
COc1ccc(S(=O)(=O)N2CCCCC2)cc1NS(=O)(=O)c1cc(Cl)ccc1Cl | -53.2 | 8.4 | 7.0% | 1.3 | -1.5
CC1(C)Cc2cccc(OCC(=O)N3CCN(c4cccc(C(F)(F)F)c4)CC3)c2O1 | / | / | / | -4.0 | -7.2
Cc1cc(C)n2nc(C(=O)NC(C)(C)C)nc2n1 | -8.6 | 2.1 | -2.3% | -3.7 | -17.6
CC(C)S(=O)(=O)c1cnc(-c2cccnc2)nc1N | / | / | -11.6% | -1.1 | -12.8
COc1ccc(N2C(=O)c3ccccc3NC2c2ccc(NC(C)=O)cc2)c(OC)c1 (centres undefined) | / | / | / | -5.3 | -4.7
CCOc1ccc(C2(C#N)CC[N+](C)(C)CC2)cc1 | -25.0 | 3.5 | 2.5% | 1.6 | -13.8

Two compounds drawn at random from the list so far:
SMILES | YopH PTP inh | Arbovirus inh | Mtb H37Rv | RecA intein inh | Mtb bLac sens | others
CC1CCN(Cc2nc(-c3ccc(Cl)cc3)no2)CC1 | / | / | -10.0% | 2.3 | 5.0
CC(C)S(=O)(=O)c1cnc(-c2cccnc2)nc1N | / | / | -11.6% | -1.1 | -12.8
